# CBX7 inh: CBX7 inhibition, primary AlphaScreen. hit rate 1.1% among 66,000. AlphaScreen His6-CBX7 / biotin-H3K27me3 peptide binding; stronger effect = lower value. normalised signal (fraction of DMSO) (no concentration beside the values). O95931; in the data active means normalised signal below about 0.5;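 further: 100 nL library stock added to about 20 µL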
# Target sequence (O95931 whole entry, looked up): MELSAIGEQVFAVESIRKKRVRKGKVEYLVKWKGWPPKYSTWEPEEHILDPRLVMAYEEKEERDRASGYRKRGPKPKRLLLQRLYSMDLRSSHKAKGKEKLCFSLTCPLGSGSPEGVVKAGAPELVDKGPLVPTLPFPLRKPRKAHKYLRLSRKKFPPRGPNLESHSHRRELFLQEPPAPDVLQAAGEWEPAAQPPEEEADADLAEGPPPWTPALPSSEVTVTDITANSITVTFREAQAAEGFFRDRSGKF
# CBX7 inh z-score: also measured in CBX7 inh; calls as there; z-score; measured here: z-score of CBX7 signal; some inactives read as strong as hits; reference of the scale not given here;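 same signal on another scale; lower means less binding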
# * marks the source's active call; other numbers are inactive results. The list is partial, so the mix of outcomes need not match the whole.
# The first 5 entries, to show the layout:
Molecule | CBX7 inh | CBX7 inh z-score
CCc1cc(-c2n[nH]c(C)c2-c2ccc3c(c2)OCCO3)c(O)cc1OC | 0.71 | -6.6
CCOc1ccccc1CN(C)CCc1ccccn1 | 0.58 | -3.3
COc1c2[nH]c(=O)cc(C(F)(F)F)c2cc2c(C)c(C)[nH]c12 | 1 | 1.7
CCN(CCCNC(=O)CN1C(=O)CCSc2ccccc21)Cc1ccccc1 | 1 | 0.054
COc1ccc(OC)c(Nc2c3c(nc4cc(Cl)ccc24)CCCC3)c1 | 0.73 | -4.1

# This part in full, repeating the preview:
Molecule | CBX7 inh | CBX7 inh z-score
CCc1cc(-c2n[nH]c(C)c2-c2ccc3c(c2)OCCO3)c(O)cc1OC | 0.71 | -6.6
CCOc1ccccc1CN(C)CCc1ccccn1 | 0.58 | -3.3
COc1c2[nH]c(=O)cc(C(F)(F)F)c2cc2c(C)c(C)[nH]c12 | 1 | 1.7
CCN(CCCNC(=O)CN1C(=O)CCSc2ccccc21)Cc1ccccc1 | 1 | 0.054
COc1ccc(OC)c(Nc2c3c(nc4cc(Cl)ccc24)CCCC3)c1 | 0.73 | -4.1
CCc1ccc(-c2cn3c(n2)SCC3)cc1 | 1 | -0.00017
O=C(Nc1ccc2oc(-c3ccccc3Br)nc2c1)c1ccc(F)cc1 | 1 | 0.6
CC1CCCCC1NC(=O)C1c2cccn2CC(=O)N1CC1CCCO1 (configuration not stated) | 1 | -0.015
CC(C)n1c(COc2ccc(Cl)cc2)nc2ccccc21 | 1 | 0.26
O=C(NC1CCCC1)c1ccc2nc(N3CCOCC3)sc2c1 | 1 | -0.052
COc1ccccc1CNC(=O)C1CCN(S(=O)(=O)c2cccs2)CC1 | 0.99 | -0.24
CC(C)c1ccc(C(=O)CC2(O)C(=O)N(Cc3ccccc3)c3ccc(Cl)cc32)cc1 (configuration not stated) | 0.89 | -3.3
Cc1c(C(=O)Nc2cccc(C(F)(F)F)c2)sc2ncn(CC(=O)N3CCCCC3C)c(=O)c12 (configuration not stated) | 1.1 | 3.3
CCC1=Nc2cc(C(=O)NCc3ccc(F)cc3)ccc2Sc2ccccc21 | 0.92 | -1.3
COc1cccc(C(=O)Nc2c3c(nn2-c2cccc(C)c2)CSC3)c1 | 0.94 | -1.4
COc1cc2c(cc1OC)C(c1cccc(OC)c1OC)CC(=O)N2 (configuration not stated) | 1.4 | 4
CCOC(=O)c1ccc(NC(=O)CC2Sc3ccccc3NC2=O)cc1 (configuration not stated) | 1.1 | 1.1
CCOC(=O)c1c(NC(=O)COc2ccc(F)cc2F)sc2c1CCCC2 | 1.1 | 1.4
O=C(Nc1ccc(OC(F)(F)F)cc1)c1cc(-c2ccc(O)cc2)on1 | 0.97 | -0.98
COc1cccc(NC(=O)Nc2nnc(COc3ccc(F)cc3)s2)c1 | 1.1 | 0.43
Cc1ccc(NC2c3ccccc3C(=O)N2c2ccccc2C)cc1 (configuration not stated) | 0.9 | -3.3
CCCCNC(=O)CN1C(=O)CSc2ccccc21 | 0.93 | -0.58
COC(CNC(=O)c1ccc2c(c1)nc(C)n2-c1cc(C)cc(C)c1)OC | 1.1 | 0.93
COc1ccc(C)cc1N(C)C(=O)Cc1c(C(=O)O)[nH]c2ccc(Cl)cc12 | 1 | 0.07
CCOc1ccc(NC(=O)CC2C(=O)N(c3ccccc3)C(=O)N2CCc2ccc(OC)cc2)cc1 (configuration not stated) | 0.85 | -0.66
CCCOc1ccc(C2Nc3ccccc3NC3=C2C(=O)CC(c2ccc(OC)cc2)C3)cc1 (configuration not stated) | 0.78 | -1.5
CSc1nc(C)cc(Oc2ccc(OCCOc3ccc(Br)cc3)nn2)n1 | 1.2 | 2.9
CCC(=O)Nc1nc(C)c(-c2csc(Nc3cc(Cl)ccc3OC)n2)s1 | 1.1 | 1.5
O=C1N(c2ccccc2)C2CS(=O)(=O)CC2N1c1ccccc1Cl (configuration not stated) | 0.96 | -0.68
O=C1CCc2cc(S(=O)(=O)N3CCN(c4ccccc4Cl)CC3)ccc2N1 | 0.93 | -1.6
CN(C(=O)COc1ccc2c(c1)C(=O)CC(C)(C)O2)C1CCCCC1 | 0.81 | -2.1
Cc1ccc2c(c1)-c1c(cnn1CC(=O)N1CCCC1)CO2 | 1.1 | 2.5
CCOc1ccc(NC(=O)Cn2nc(Cc3cccnc3)c3ccccc3c2=O)cc1 | 1.1 | 1.3
Cc1ccc(C(=O)Nc2c(C(=O)N3CCCCC3)cnn2-c2ccccc2)cc1 | 0.89 | -1.8
CCOC(=O)c1nnn(-c2nonc2N)c1CSc1nc2ccccc2s1 | 1.1 | 0.68
COCCCNS(=O)(=O)c1ccc2c(c1)CCN2C(C)=O | 1.5 | 1.9
O=S(=O)(Nc1ccc(Cl)c2cccnc12)c1ccccc1 | 0.61 | -8.4
COc1cccc(CNC(=O)c2cc3c(s2)-c2ccccc2OC3)c1 | 1.4 | 9.4
CCOc1ccc(-n2c(Cc3cc(=O)[nH]c(=O)[nH]3)nnc2SC)cc1 | 0.85 | -2.3
Cc1[nH]c2ccc(-c3nnc(SCC(N)=O)n3-c3ccc(Br)cc3)cc2c1C | 0.93 | -1.9
CCn1cc(C(=O)Nc2ccc(OC)cc2)c(=O)c2ccc(C)nc21 | 1 | 0.073
Cc1ccc(-n2nc3c(c2NC(=O)c2cccs2)CS(=O)(=O)C3)cc1 | 1.2 | 1.5
COc1ccc(CCN2C(=O)CCC2(C)C(=O)NC2CCCC2)cc1OC (configuration not stated) | 0.85 | -2.5
COc1ccc(Cc2nc(-c3cccs3)no2)cc1OC | 1 | 1.5
COc1ccc2cc(CCNC(=O)COc3ccc(Cl)cc3)c(=O)[nH]c2c1 | 1.1 | 2
O=C(c1ccc2c(=O)n(CCc3ccccc3)c(=O)[nH]c2c1)N1CCN(c2ccccc2F)CC1 | 1 | 0.4
CC(C)(C)c1ccc(OCc2nc3ccccc3n2CCOc2ccccc2)cc1 | 0.94 | -1.5
CCc1cccc(NC(=O)C2CCCN2S(=O)(=O)c2cccc3cccnc23)c1 (configuration not stated) | 0.99 | -0.2
Cc1sc(NC(=O)c2cc3cc(Br)ccc3oc2=O)nc1-c1ccc(Cl)cc1 | 1.1 | 0.59
CCC(=O)Nc1ccc2oc(-c3ccc(Br)c(C)c3)nc2c1 | 0.96 | -0.54
CCc1ccc(NC(=O)CSc2nnc(CNC(=O)c3c(F)cccc3Cl)o2)cc1 | 0.82 | -2.9
CCn1ccnc1C(O)c1ccc(OC)c(OC)c1 (configuration not stated) | 1 | 0.062
CCCNC(=O)Cn1cnc2sc(C(=O)Nc3ccc(OC)c(Cl)c3)c(C)c2c1=O | 0.99 | -0.15
COc1ccccc1-c1cc(C(F)(F)F)nc(S(=O)(=O)CCCC(=O)O)n1 | 1.1 | 0.76
O=C(Nc1ccc(F)c(Cl)c1)c1cc(-c2ccccc2Cl)nc2ccccc12 | 1.2 | 0.66
COc1ccc(NC(=O)c2cc3c(-c4ccc(OC)c(OC)c4)nn(C)c3s2)cc1Cl | 0.95 | -1.4
Cc1cccc(C(=O)Nc2nnc(Cc3ccc(Cl)cc3)s2)c1 | 0.96 | -0.73
CCN(CC)CCC#CC(O)(c1ccccc1)C1CCCCC1 (configuration not stated) | 0.94 | -0.66
O=C(Nc1ccc(-c2nc3ccccc3s2)cc1)c1cccnc1Cl | 0.95 | -0.86
Cc1sc2ncn(CC(=O)N3CC(C)CC(C)C3)c(=O)c2c1S(=O)(=O)N1CC(C)CC(C)C1 (configuration not stated) | 1 | 0.24

# A draw from above in order of length of the SMILES, falling.
Molecule | CBX7 inh | CBX7 inh z-score
O=C(c1ccc2c(=O)n(CCc3ccccc3)c(=O)[nH]c2c1)N1CCN(c2ccccc2F)CC1 | 1 | 0.4
Cc1sc(NC(=O)c2cc3cc(Br)ccc3oc2=O)nc1-c1ccc(Cl)cc1 | 1.1 | 0.59
Cc1ccc(-n2nc3c(c2NC(=O)c2cccs2)CS(=O)(=O)C3)cc1 | 1.2 | 1.5

# Next records.
Molecule | CBX7 inh | CBX7 inh z-score
COc1ccc(-c2nc3cc(NC(=O)COc4cc(C)cc(C)c4)ccc3o2)cc1Cl | 1 | 0.46
CC(C)c1ccc(NS(=O)(=O)c2ccc3[nH]cc(C(=O)NC(C)c4ccccc4)c(=O)c3c2)cc1 (configuration not stated) | 0.62 | -7.2
Cc1ccc(-c2nc3sccn3c2Nc2c(C)cccc2C)cc1 | 0.73 | -3.2
Cc1ccc(CCNC(=O)c2cc(=O)[nH]c3ccccc23)cc1 | 1.1 | 0.092
COC(=O)c1ccc(C2C(Oc3ccccc3C)C(=O)N2c2cccc(Cl)c2)cc1 (configuration not stated) | 1.1 | 0.93
Cc1ccccc1-n1cnc2cc(Nc3nnc(-c4ccc(Cl)cc4)c4ccccc34)ccc21 | 0.93 | -1.4
CCN(CC)S(=O)(=O)c1ccc2oc(C(=O)Nc3cccc(OC)c3)c(C)c2c1 | 1.1 | 2.4
CN(C)CCNC(=O)Cn1nc(-c2ccc(Cl)cc2)ccc1=O | 1.1 | 2.7
Cc1ccc(CNS(=O)(=O)c2ccc3c(c2)CCN3C(=O)C2CC2)cc1 | 1 | 0.16
COc1ccc(-c2noc(N(C)CC(=O)Nc3ccccn3)n2)cc1 | 1 | 0.058
Cc1ccc(-c2nnc(NCc3ccccc3)c3ccccc23)cc1S(=O)(=O)NCCO | 1 | -0.094
COc1ccc2c(c1)c(=O)c(S(=O)(=O)c1ccccc1)cn2CC(=O)Nc1ccc2c(c1)OCO2 | 0.93 | -0.92
O=C(CN1C(=O)COc2ccc(S(=O)(=O)N3CCCC3)cc21)N1CCC(N2CCCCC2)CC1 | 1.2 | 1.9
O=C(NCc1ccccc1)c1cnn2c(C(F)(F)F)cc(-c3ccccc3)nc12 | 1 | 0.29
CC(Sc1nnc(-c2ccc(Cl)cc2Cl)o1)C(=O)NC(c1ccccc1)c1ccccc1 (configuration not stated) | 0.99 | -0.28
Cc1nc(N2CCN(c3ccc(F)cc3)CC2)c2c3c(sc2n1)CCCC3 | 0.9 | -2.4
CCOc1ccc(-c2nc(C#N)c(Nc3ccc(OC)cc3)o2)cc1 | 1.1 | 1.2
CC1CCN(c2nc3ccc(C(=O)N4CCC(N5CCCCC5)CC4)cc3s2)CC1 | 1.3 | 2.6
COCCNC(=O)c1cc(-c2ccc(OC)cc2)nc2ccccc12 | 1.1 | 0.24
CCOc1ccc(C(=O)Nc2ccc(S(=O)(=O)Nc3nc(C)cc(C)n3)cc2)cc1 | 1.3 | 2.9
Cc1nc2c(cnn2-c2ccccc2Cl)c(=O)n1-c1ccc(N2CCC(C)CC2)cc1 | 0.83 | -2.6
Clc1ccc(-c2nc3cccnc3nc2-c2ccc(Cl)cc2)cc1 | 0.63 | -2.4
Cc1ccc(CN2CCN(CC(=O)NC3CCCCCC3)C2=O)cc1 | 1 | 0.39
Cc1oc(-c2ccc(Cl)cc2)nc1C(=O)NCCCN1CC(C)CC(C)C1 (configuration not stated) | 1.1 | 0.14
CC(=O)Nc1ccc(NC(=O)CSCc2cnn(-c3ccccc3)c2-n2cccc2)cc1 | 0.98 | -0.92
CCCOc1ccc(-c2nc(N3CCCC3)c3ccccc3n2)cc1 | 1.1 | 0.082
COc1ccc(-n2cc(C(=O)Nc3ccc(OC)c(OC)c3)c3ccccc3c2=O)cc1 | 0.83 | -2.4
COc1ccc(N2CCN(c3oc(COc4ccccc4OC)nc3C#N)CC2)cc1 | 0.55 | -13
COc1ccccc1C(=O)NC(C)C(c1cccs1)N1CCN(c2ccc(F)cc2)CC1 (configuration not stated) | 0.69 | -10
COc1cc2c(C(=O)NCCCN3CCOCC3)c3n(c(=O)c2cc1OC)CCc1ccccc1-3 | 1.1 | 3.4
CC1CCN(c2c(NCc3ccc(C(=O)N4c5ccccc5CC4C)cc3)c(=O)c2=O)CC1 (configuration not stated) | 1 | 0.36
Nc1nonc1-c1nc2ccccc2n1Cc1cccc(Br)c1 | 1 | 0.27
Cc1ccc(NC(=O)c2cc3sc(Cl)cc3n2C)cc1C | 1 | 0.68
O=C(O)c1[nH]c2ccc(Cl)cc2c1CC(=O)N1CCCCCC1 | 1 | 1.3
Cc1cc(C(=O)Nc2ccc(F)cc2)n(-c2ccccc2)n1 | 1 | 0.2
COc1ccc(N2C(=O)C(CC(=O)Nc3ccccc3)N(Cc3cccs3)C2=O)cc1 (configuration not stated) | 0.91 | -0.4
CCCCC(CC)CNC(=O)C1CCC(Cn2c(=O)[nH]c3ccsc3c2=O)CC1 (configuration not stated) | 0.97 | -0.7
COc1ccccc1C1(CC(=O)O)CCOC(C)(C)C1 (configuration not stated) | 0.94 | -0.64
Cc1nc(Oc2ccc(F)cc2)c(C(=O)O)c(C)c1Cl | 1 | -0.011
Cc1ccccc1Nc1nc(C(F)(F)F)c(-c2ccc(F)cc2)s1 | 1 | 0.74
O=C(Nc1ccccc1-c1nc2ccccc2s1)c1cccc(C(F)(F)F)c1 | 1.1 | 1.5
COC(=O)c1cc(Br)ccc1OC(=O)c1ccco1 | 1 | -0.065
CC(=O)NCc1nc2ccccc2n1Cc1ccccc1F | 0.83 | -2.6
COc1cccc(-c2nc(CS(=O)(=O)CC(=O)NCc3ccccc3OC)c(C)o2)c1 | 1 | 0.086
O=C(CN1C(=O)COc2ccc(Cl)cc21)NCCCN1CCOCC1 | 1.4 | 0.78
Cc1ccc(N2C(=O)CC(c3cccnc3)C3=C2CC(C)(C)CC3=O)cc1 (configuration not stated) | 1.1 | 0.96
COc1ccc(Cl)cc1NC1c2ccccc2C(=O)N1c1cc(C)ccn1 (configuration not stated) | 0.99 | -0.25
Cc1cc(C)c(C#N)c(Oc2cccc(NC(=O)c3ccc(Cl)cc3)c2)n1 | 1.3 | 2.5
COc1ccc(C(=O)NCc2nnc(SCC(=O)Nc3ccc(OC)cc3OC)o2)cc1 | 1 | 0.28
Cc1cc(OC(C)C(=O)N(Cc2ccc(N(C)C)cc2)C2CCS(=O)(=O)C2)cc(C)c1Cl (configuration not stated) | 0.92 | -0.69
COc1ccc(-c2cc3ccccc3n2CC(O)CNC2CCCCC2)cc1 (configuration not stated) | 0.99 | -0.098
O=C(Cn1nc(-c2ccc(Cl)cc2)ccc1=O)NCc1ccccn1 | 0.93 | -3.7
Cc1ccc(-c2nc(CS(=O)(=O)CC(=O)NCCN(CC(C)C)CC(C)C)c(C)o2)cc1 | 0.95 | -0.045

# Source: PubChem (several laboratories)
